# NS1 function inh – blocks influenza NS1 protein function. S. cerevisiae slowed by influenza A NS1, growth recovery by OD600. Potency, µM (titrated, usually from 46.1 µM), without a hit: at the highest dose activity, positive = more growth. actives 0.4% (n = 270,000). AID 2326; note: actives are rising curves; nearly all actives have a fitted effect of over 50% in size
#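 Read-out: OD600 growth recovery of NS1-expressing budding yeast. Cells grown overnight at 30C in -URA glucose medium, washed, resuspended and diluted 1:100 in 2% galactose assay medium, pH 6.0. Same strain lacking NS1 served as positive control.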
# SARS PLpro yeast – blocks SARS-CoV papain-like protease in a yeast assay; S. cerevisiae expressing SARS-CoV PLpro, growth rescue; control for the full effect not named in the record; Potency, µM (series often up to 32.9 µM), for the others: at the top dose activity, positive = growth rescue; actives 0.19% (n = 330,000); AID 485353; note: 0% is about no effect; nearly all actives have a fitted effect of over 55% in size; growth read by luminescence after 48 h
# Cruzain Triton – blocks cruzain activity in presence of Triton detergent; P25779; actives 0.43% (n = 200,000); purified cruzain, Z-FR-AMC fluorescence, 0.01% Triton; Potency, µM, without a hit: max response, negative = inhibition, usual class: inhibitors; active = well fitted curve in the direction sought with a large enough effect; inconclusive = small, poorly fitted or top-dose-only effect, or another doubt; inactive = no such curve, though single readings can be large; an effect the other way counts as inactive or inconclusive;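 note: plate controls were neutral wells for no effect and buffer without enzyme for full effect; nearly all actives have a fitted effect of over 40% in size; top concentration of the series not given in the record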
# Target sequence (P25779 123-467 limits assumed): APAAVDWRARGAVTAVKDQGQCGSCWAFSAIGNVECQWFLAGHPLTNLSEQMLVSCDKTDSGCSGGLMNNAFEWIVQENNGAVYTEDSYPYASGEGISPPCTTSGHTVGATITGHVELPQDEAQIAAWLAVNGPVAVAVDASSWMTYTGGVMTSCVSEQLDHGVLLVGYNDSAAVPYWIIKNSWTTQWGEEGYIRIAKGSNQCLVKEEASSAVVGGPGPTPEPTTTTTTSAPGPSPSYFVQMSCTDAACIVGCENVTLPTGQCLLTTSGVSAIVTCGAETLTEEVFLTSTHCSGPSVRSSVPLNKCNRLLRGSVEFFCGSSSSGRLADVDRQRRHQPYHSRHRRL
#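 Compounds were screened in titration against cruzain (1.5 nM) with 0.01% Triton X-100 to counter colloidal aggregation. Activity was the AMC fluorescence increase over 60 s after adding 2 uM Z-FR-AMC at pH 5.5.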
# RE007 growth inh – less growth of the S. pombe RE007 Vpr strain; S. pombe RE007 Vpr strain, BacTiter-Glo ATP luminescence, 24 h; control for the full effect not named in the record; Potency, µM (doses to about 92.2 µM), for the others: at the highest dose activity change, negative = less growth; actives 0.21% (n = 360,000); active = well fitted falling curve with a large enough effect; inconclusive = small, poorly fitted or top-dose-only effect; inactive = no such curve, though single readings can be large or run the other way;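 note: % is set by controls: 0 for no effect and ±100 for the full control effect; nearly all actives have a fitted effect of over 50% in size; the assay follows cell death caused by Vpr and the record does not say whether a fall means rescue or toxicity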
#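 Fission yeast strain RE007, carrying one chromosomally integrated HIV-1 vpr copy, was seeded at OD 0.01 in PMG+AL medium with 23 nL pinned compound. After 24 h at 30 °C and 99% humidity, viability was read by BacTiter-Glo luminescence.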
# Cruzain inh noDet – inhibitors of Trypanosoma cruzi cruzain without detergent. purified cruzain, Z-FR-AMC fluorescence, no detergent. P25779. Potency, µM, without a hit: max response, negative = inhibition, actives largely listed as inhibitors. actives 2.3% (n = 200,000). AID 1476; active = well fitted curve in the direction sought with a large enough effect; inconclusive = small, poorly fitted or top-dose-only effect, or another doubt; inactive = no such curve, though single readings can be large; an effect the other way counts as inactive or inconclusive;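 note: plate controls were enzyme without inhibitor for no effect and buffer without enzyme for full effect; nearly all actives have a fitted effect of over 40% in size; top concentration of the series not given in the record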
#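 Detergent-free condition (0.00005% Triton X-100) in acetate buffer pH 5.5 with DTT. 1.5 nM enzyme and compound were pre-mixed 15 min, then 2 uM Z-FR-AMC substrate added; reaction progress from fluorescence change between first and third reads (60 s).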
# 2A StopGo – lowers the luciferase signal of an FMDV 2A StopGo reporter; human cells with a luciferase reporter of 2A StopGo recoding; control for the full effect not named in the record; Potency, µM (doses to about 57.9 µM), without a hit: at the highest dose signal change, negative = less light; actives 1.2% (n = 410,000); AID 1159524; active = well fitted falling curve with a large enough effect; inconclusive = small, poorly fitted or top-dose-only effect; inactive = no such curve, though single readings can be large or run the other way; tested in HEK293T cells; note: % is set by controls: 0 for no effect and ±100 for the full control effect; nearly all actives have a fitted effect of over 45% in size; luciferase light after 4 h
# Marburg entry inh – Marburg virus entry inhibition | actives 1.8% (n = 300,000) | Marburg virus pseudotyped entry inhibition, cell reporter; control for the full effect not named in the record; about a third of the inactives were read at about 46 µM | AID 540276 | Potency, µM (doses to about 37.8 µM), for the others: top-dose activity change, negative = inhibition, most hits filed as inhibitors; active = well fitted inhibition curve with a large enough effect; inconclusive = small, poorly fitted or top-dose-only effect, or effect the other way; inactive = flat fitted curve, though single readings scatter; tested in HEK293 cells; about a fifth of its hits are not listed in these tables; note: % is set by controls: 0 for no effect and ±100 for the full control effect; luciferase read-out
# LASV entry inh – inhibitors of Lassa virus binding or cell entry; actives 1.2% (n = 300,000); AID 540256; Lassa virus pseudotype entry inhibition, cell reporter; control for the full effect not named in the record; Potency, µM (doses to about 37.9 µM), without a hit: at the top dose activity change, negative = inhibition, most hits filed as inhibitors; active means well fitted inhibition curve with a large enough effect; inconclusive means small, poorly fitted or top-dose-only effect, or effect the other way; inactive means flat fitted curve, though single readings scatter; tested in HEK293 cells; note: % is set by controls: 0 for no effect and ±100 for the full control effect; nearly all actives have a fitted effect of over 50% in size; luciferase read-out
# * marks the source's active call; other numbers are inactive results; u = inconclusive; x = no result given; & = joins results of further samples; [ ] = another dose, or the depositor's remark. Unless noted, calls come from the whole dose curve; as a rule, active means well fitted rising curve with a large enough effect; inconclusive means small, poorly fitted or top-dose-only effect; inactive means no such curve, though single readings can be large or run the other way. Potency is the fitted concentration of half-maximal effect.
SMILES,NS1 function inh,SARS PLpro yeast,Cruzain Triton,RE007 growth inh,Cruzain inh noDet,2A StopGo,Marburg entry inh,LASV entry inh
O=C(NC1CCCC1)C(c1ccncc1)N(Cc1ccco1)C(=O)c1ccc(-c2ccccc2)[nH]1 (configuration not stated),x,-7%,x,-16%,x,13%,10µM*,x
C[C@@]12CCC=C[C@H]1[C@H](c1ccc3ccccc3c1/C=C/c1ccccc1)N(Cc1ccccc1)C2=O,3%,1%,x,0%,x,0%,x,x
COc1ccc(NC(=O)c2cc3c(s2)CCC3)cc1S(=O)(=O)N1CCOCC1,12%,-2%,-8.6%,13%,15%,u,-32%,u
c1ccc2c(N3CCNCC3)nsc2c1,0%,1%,x,1%,x,2%,u,u
CCOCC(O)CNc1ccccc1 (configuration not stated),-9%,-15%,1.3%,x,-9%,-10%,u,5%
CCN(C(=O)COC(=O)c1cc(-c2ccccc2)nn1-c1ccccc1)C1CCS(=O)(=O)C1 (configuration not stated),x,-1%,x,3%,x,-13%,u,u
O=c1[nH]c(=S)[nH]c(O)c1CN1CCCCC1,7%,-4%,-0.6%,23%,-10%,-14%,-1%,u
CC1(C)Oc2ccc3ccc(=O)oc3c2/C(=C/Nc2ccc(O)cc2)C1=O,8%,0%,x,5%,x,u,u,u
Cc1cccc(C(=O)Nc2cc(OCc3cccc(F)c3)c(Cl)cc2Cl)c1,2%,2%,-0.6%,-13%,u,8%,24%,0%
COCCNC(=O)c1ccc2c(c1)N(Cc1cccc(Cl)c1)C(=O)c1ccccc1S2=O (configuration not stated),x,x,-2.2%,x,12%,-4%,x,1%[46.1 µM]
COc1ccc(NS(=O)(=O)c2ccc(Cl)s2)cn1,-3%,0%,x,-9%,x,14%,21%,2%
O=C(CCn1cccn1)Nc1cccc(C(F)(F)F)c1,x,x,-2.3%,x,4%,-7%,x,3%[46.1 µM]
O=C(COC(=O)CNS(=O)(=O)c1cccc(Br)c1)NC(=O)Nc1ccc2c(c1)OCCO2,8%,-18%,-29%,2%,-27%,64%[activator],-1%,19%
COc1ccc(Cn2c(C)nc3c(c(=O)c4ccccc4n3C)c2=O)cc1,0%,0%,x,-20%,x,12%,3%,-16%
Cc1ccc(NC(=O)Cn2nnc(-c3ccccc3)n2)c(C)c1,x,x,2.5%,x,2%,-4%,x,16%[46.1 µM]
CC(=O)c1c(C)oc2c1cc(O)c1ccccc12,4%,-1%,x,-2%,x,6%,x,x
CC(C)(C)n1nc2c(c1NC(=O)c1ccccc1C(F)(F)F)CS(=O)(=O)C2,4%,4%,x,8%,x,-8%,0%,0%
Cc1ccccc1CS(=O)(=O)Cc1ccc(C(=O)NCCc2ccc(Cl)cc2)o1,x,x,-0.6%,x,22%,28µM*,x,u
COc1ccc(CC(=O)N/N=C(\C)c2ccccn2)cc1,-2%,-20%,-2.0%,u,1%,-15%,u,u
COc1c(O)ccc(/C=C(\C#N)c2nc3ccccc3[nH]2)c1[N+](=O)[O-],7%,-7%,-7.9%,-3%,-10%,-7%,-5%,18%
O=C(NCCc1cccs1)C1CC1,-1%,1%,x,-3%,x,3%,-6%,18%
CC1(c2nnc(-c3ccccc3)o2)CC(c2ccncc2)=NO1 (configuration not stated),-2%,0%,x,11%,x,-23%,x,x
COc1ccc(/C=C2\CCC(C3CCCC3)C2=O)c(OC)c1OC (configuration not stated),5%,0%,x,2%,x,23%,x,x
CCOc1ccc(CSC(=N)N)cc1Cl,2%,2%,x,1%,x,u,x,x
O=C(O)CN1C(c2ccccc2O)Nc2ccc(Br)cc2C1c1ccccc1 (configuration not stated),5%,1%,x,15%,x,4%,4%[46.1 µM],-1%[46.1 µM]

# Of the compounds above, these contain four or more nitrogen atoms.
SMILES,NS1 function inh,SARS PLpro yeast,Cruzain Triton,RE007 growth inh,Cruzain inh noDet,2A StopGo,Marburg entry inh,LASV entry inh
O=C(NC1CCCC1)C(c1ccncc1)N(Cc1ccco1)C(=O)c1ccc(-c2ccccc2)[nH]1 (configuration not stated),x,-7%,x,-16%,x,13%,10µM*,x
Cc1ccc(NC(=O)Cn2nnc(-c3ccccc3)n2)c(C)c1,x,x,2.5%,x,2%,-4%,x,16%[46.1 µM]
COc1c(O)ccc(/C=C(\C#N)c2nc3ccccc3[nH]2)c1[N+](=O)[O-],7%,-7%,-7.9%,-3%,-10%,-7%,-5%,18%
CC1(c2nnc(-c3ccccc3)o2)CC(c2ccncc2)=NO1 (configuration not stated),-2%,0%,x,11%,x,-23%,x,x

# (more compounds)
SMILES,NS1 function inh,SARS PLpro yeast,Cruzain Triton,RE007 growth inh,Cruzain inh noDet,2A StopGo,Marburg entry inh,LASV entry inh
COc1ccc(C(=O)Nc2cccc(-c3cc4ccccc4oc3=O)c2)cc1[N+](=O)[O-],26%,-4%,-8.6%,6%,10µM*,u,u,u
COc1ccccc1C(=O)N/C(=C\c1ccc(Br)cc1)C(=O)N1CCCC1,-9%,0%,x,24%,x,-1%,-9%[46.1 µM],11%
CO/N=C\C(=N\Nc1ccc(OC)cc1)C(=O)c1ccccc1,-3%,-24%,-2.4%,-13%,-10%,-3%,u,-13%
CC[C@]12c3[nH]c4cc(-c5ccco5)ccc4c3CCN1C(=O)[C@@H](CC(=O)NCC13CC4CC(CC(C4)C1)C3)C[C@@H]2C(=O)N1CCN(C(=O)c2ccco2)CC1,x,-5%,x,6%,x,u,1%,x
CCOCCCNC(=O)C1CCCN(S(=O)(=O)CC)C1 (configuration not stated),-3%,1%,1.3%,-1%,-7%,4%,2%,0%
CSc1nnc(-c2sccc2OCc2ccccc2)n1C,-12%,-21%,7.2%,10%,-9%,-1%,13%,12%
COc1ccc(-n2nc3c(N4CCCC(C(=O)NCCc5ccccc5C)C4)nnc(C)c3c2C)cc1 (configuration not stated),x,x,-12%,x,11%,-7%,x,-17%[46.1 µM]
N/C(=N\c1nc2ccccc2o1)NC(=O)c1ccccc1NC(=O)c1ccccc1,7%,-1%,-3.3%,-3%,u,-21%,28%&28%,0%
Cc1cc(O)c(C(C)C)cc1N=Cc1ccc(N(C)C)cc1,x,x,x,-7%,x,-6%,u,u
COc1ccc(O)c(C(=O)c2cnn(-c3ccccc3)c2)c1,-36%,-15%,x,8%,x,35%[activator],u,5%[46.1 µM]
CC1CCCCC1NC1=NCCS1 (configuration not stated),13%,u,4.2%,-17%,5%,4%,-3%,19%
COc1ccccc1NC(=O)/C(C#N)=C/C=C/c1ccco1,5%,2%,2.4%,4%,-20%,7%,u,-17%
CNC(=S)N/N=C/c1ccc(-c2cc([N+](=O)[O-])ccc2Cl)o1,7%,1%,x,0%,x,-19%,-29%[46.1 µM],7%
O=C(CCc1nc(-c2ccc(Cl)cc2)no1)OCc1ccc(Br)cc1,-37%,x,x,u,x,23%,-9%[46.1 µM],18%
Nc1nc(CSCCO)nc(Nc2ccccc2)n1,-8%,8%,-0.5%,13%,-9%,12%,16%,1%
COc1cccc(Cn2cc(C(=O)c3ccccc3)c(=O)c3cc4c(cc32)OCO4)c1,x,x,-0.6%,x,5%,-7%,-17%[46.1 µM],-4%[46.1 µM]
CCOC(=O)C1=C(N)Oc2cc(C)oc(=O)c2C12C(=O)N1c3c(cc(OC)cc32)C(C)=CC1(C)C (configuration not stated),-9%,-4%,-5.9%,-17%,u,17%,0%,-19%
COc1ccc(NC(=O)CCC(=O)Nc2nnc(C3CCCCC3)s2)cc1,4%,-1%,x,7%,x,-4%,17%[46.1 µM],0%[46.1 µM]
CC(C)[C@H](NC(=O)c1ccco1)C(=O)OCC(=O)N1CCc2ccccc21,-24%,0%,-2.0%,11%,3%,42%[activator],1%,-29%
CCNC(=O)COc1ccc(C=O)cc1OC,-1%,1%,-3.1%,2%,u,2%,16%,18%
O=C(OCC(=O)c1ccc[nH]1)c1ccc(Cl)nc1,x,1%,x,6%,x,9%,6%[46.1 µM],18%
COCCNC(=O)c1ccc(N2CC3CC(C2)c2cccc(=O)n2C3)c(NC(=O)c2c(F)cccc2F)c1 (configuration not stated),u,23%,x,3%,x,11%,x,x
COc1ccc(C)c2sc(NC(=O)C3=COCCO3)nc12,-1%,-17%,-7.4%,x,3%,x,x,x
CSc1ccccc1OCc1cc(C(=O)N2CCc3[nH]cnc3C2c2ccccn2)no1 (configuration not stated),9%,5%,x,-2%,x,-20%,u,2%
COc1cc(/C=C/C(=O)O)cc(S(=O)(=O)Nc2ccccc2Oc2ccccc2)c1OC,u,2%,x,10%,x,-20%,x,x
Cc1ccc(-c2nc3cccnc3s2)cc1NS(=O)(=O)c1ccc2c(c1)OCCO2,30%,-21%,-4.9%,0%,u,45%[activator],x,x

# One compound at a time, as listed above. Order of values: NS1 function inh	SARS PLpro yeast	Cruzain Triton	RE007 growth inh	Cruzain inh noDet	2A StopGo	Marburg entry inh	LASV entry inh
# Record of N/C(=N\c1nc2ccccc2o1)NC(=O)c1ccccc1NC(=O)c1ccccc1 : 7%	-1%	-3.3%	-3%	u	-21%	28%&28%	0%
# Record of Nc1nc(CSCCO)nc(Nc2ccccc2)n1 : -8%	8%	-0.5%	13%	-9%	12%	16%	1%
# Record of O=C(NC1CCCC1)C(c1ccncc1)N(Cc1ccco1)C(=O)c1ccc(-c2ccccc2)[nH]1 (configuration not stated) : x	-7%	x	-16%	x	13%	10µM*	x
# Record of COc1ccc(C)c2sc(NC(=O)C3=COCCO3)nc12 : -1%	-17%	-7.4%	x	3%	x	x	x
# Record of COc1ccc(-n2nc3c(N4CCCC(C(=O)NCCc5ccccc5C)C4)nnc(C)c3c2C)cc1 (configuration not stated) : x	x	-12%	x	11%	-7%	x	-17%[46.1 µM]
